From PubChem
Cruzain inh noDet = inhibitors of Trypanosoma cruzi cruzain without detergent. Potency, µM, for inactives: max response, negative = inhibition, hits mostly inhibitors. 200,000 compounds, 2.3% hits. P25779. purified cruzain, Z-FR-AMC fluorescence, no detergent; active means well fitted curve in the direction sought with a large enough effect; inconclusive means small, poorly fitted or top-dose-only effect, or another doubt; inactive means no such curve, though single readings can be large; an effect the other way counts as inactive or inconclusive;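 further: plate controls were enzyme without inhibitor for no effect and buffer without enzyme for full effect; nearly all actives have a fitted effect of over 40% in size; top concentration of the series not given in the record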
Target sequence (P25779 123-467 limits assumed): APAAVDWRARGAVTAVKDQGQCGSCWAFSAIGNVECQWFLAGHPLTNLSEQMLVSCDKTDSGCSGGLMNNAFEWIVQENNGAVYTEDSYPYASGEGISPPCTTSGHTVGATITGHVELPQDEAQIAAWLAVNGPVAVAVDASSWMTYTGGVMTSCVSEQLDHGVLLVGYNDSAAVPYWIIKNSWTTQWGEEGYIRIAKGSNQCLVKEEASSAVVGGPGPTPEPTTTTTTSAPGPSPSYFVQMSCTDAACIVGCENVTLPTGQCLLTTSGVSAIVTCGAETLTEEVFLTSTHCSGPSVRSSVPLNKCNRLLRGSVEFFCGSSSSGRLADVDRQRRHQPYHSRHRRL
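Detergent-free condition (0.00005% Triton X-100) in acetate buffer pH 5.5 with DTT. 1.5 nM enzyme and compound were pre-mixed 15 min, then 2 uM Z-FR-AMC substrate added; reaction progress from fluorescence change between first and third reads (60 s).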
StopGo reporter = lowers the luciferase signal of an FMDV 2A StopGo reporter; human cells with a luciferase reporter of 2A StopGo recoding; control for the full effect not named in the record; Potency, µM (highest dose often 57.9 µM), for the others: top-dose signal change, negative = less light; 410,000 compounds, 1.2% hits; AID 1159524; active = well fitted falling curve with a large enough effect; inconclusive = small, poorly fitted or top-dose-only effect; inactive = no such curve, though single readings can be large or run the other way; tested in HEK293T cells; further: on the % scale 0 is the no-effect control and ±100 the full control effect; nearly all actives have a fitted effect of over 45% in size; luciferase light after 4 h
SARS PLP yeast = SARS-CoV PLP inhibition in yeast; S. cerevisiae expressing SARS-CoV PLpro, growth rescue; control for the full effect not named in the record; Potency, µM (top dose mostly 32.9 µM), inactives show top-dose activity, positive = growth rescue; 330,000 compounds, 0.19% hits; AID 485353; further: 0% is about no effect; nearly all actives have a fitted effect of over 55% in size; growth read by luminescence after 48 h
NS1 inh = influenza NS1 inhibition. S. cerevisiae slowed by influenza A NS1, growth recovery by OD600. Potency, µM (titrated, usually from 46.1 µM), inactives show at the top dose activity, positive = more growth. 270,000 compounds, 0.4% hits; further: actives are rising curves; nearly all actives have a fitted effect of over 50% in size
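Compounds were scored for reversing the slow growth caused by influenza A NS1 in S. cerevisiae, measured by optical density at 600 nm. Assay medium contained 2% galactose at pH 6.0; NS1-free yeast of the same strain were the positive control.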
RE007 growth inh = less growth of the S. pombe RE007 Vpr strain. S. pombe RE007 Vpr strain, BacTiter-Glo ATP luminescence, 24 h; control for the full effect not named in the record. Potency, µM (titrated, usually from 92.2 µM), without a hit: at the highest dose activity change, negative = less growth. 360,000 compounds, 0.21% hits. AID 651644; active = well fitted falling curve with a large enough effect; inconclusive = small, poorly fitted or top-dose-only effect; inactive = no such curve, though single readings can be large or run the other way;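 further: on the % scale 0 is the no-effect control and ±100 the full control effect; nearly all actives have a fitted effect of over 50% in size; the assay follows cell death caused by Vpr and the record does not say whether a fall means rescue or toxicity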
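Fission yeast RE007 carrying one integrated HIV-1 vpr copy, seeded at OD 0.01 in PMG+AL medium with 23 nL pinned compound. Grown 24 h at 30 degrees; viability read by BacTiter-Glo luminescence after 5 min.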
Lassa entry inh = inhibitors of Lassa virus binding or cell entry; Lassa virus pseudotype entry inhibition, cell reporter; control for the full effect not named in the record; Potency, µM (doses to about 37.9 µM), for inactives: top-dose activity change, negative = inhibition, usual class: inhibitors; 300,000 compounds, 1.2% hits; active means well fitted inhibition curve with a large enough effect; inconclusive means small, poorly fitted or top-dose-only effect, or effect the other way; inactive means flat fitted curve, though single readings scatter; tested in HEK293 cells; further: on the % scale 0 is the no-effect control and ±100 the full control effect; nearly all actives have a fitted effect of over 50% in size; luciferase read-out
Cruzain inh Det = blocks cruzain activity in presence of Triton detergent | P25779 | purified cruzain, Z-FR-AMC fluorescence, 0.01% Triton | Potency, µM, for the others: max response, negative = inhibition, actives largely listed as inhibitors | 200,000 compounds, 0.43% hits; active means well fitted curve in the direction sought with a large enough effect; inconclusive means small, poorly fitted or top-dose-only effect, or another doubt; inactive means no such curve, though single readings can be large; an effect the other way counts as inactive or inconclusive;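 further: plate controls were neutral wells for no effect and buffer without enzyme for full effect; nearly all actives have a fitted effect of over 40% in size; top concentration of the series not given in the record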
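Purified cruzain (1.5 nM final) was preincubated with compounds for 15 min at room temperature in 100 mM sodium acetate pH 5.5, 5 mM DTT, 0.01% Triton X-100. Reaction started with 2 uM Z-FR-AMC; AMC fluorescence change over 60 s gave activity.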
Marburg entry inh = Marburg virus entry inhibition | Marburg virus pseudotyped entry inhibition, cell reporter; control for the full effect not named in the record; about a third of the inactives were read at about 46 µM | Potency, µM (top dose mostly 37.8 µM), inactives show at the top dose activity change, negative = inhibition, usual class: inhibitors | 300,000 compounds, 1.8% hits | AID 540276; active = well fitted inhibition curve with a large enough effect; inconclusive = small, poorly fitted or top-dose-only effect, or effect the other way; inactive = flat fitted curve, though single readings scatter; tested in HEK293 cells; about a fifth of its hits are not listed in these tables; further: on the % scale 0 is the no-effect control and ±100 the full control effect; luciferase read-out
Starred values were filed as active, the others as inactive; ? = inconclusive; · = no result given; & = joins results of further samples; [ ] = another dose, or the depositor's remark. Unless noted, the call rests on the fitted dose curve; in most records, active means well fitted rising curve with a large enough effect; inconclusive means small, poorly fitted or top-dose-only effect; inactive means no such curve, though single readings can be large or run the other way. Potency means the concentration at half of the fitted maximal effect.

SMILES | Cruzain inh noDet | StopGo reporter | SARS PLP yeast | NS1 inh | RE007 growth inh | Lassa entry inh | Cruzain inh Det | Marburg entry inh
CN(CC(=O)Nc1ccccc1C(F)(F)F)C(=O)Cn1c(=O)oc2ccccc21 | · | -17.8% | 1.6% | · | -25.9% | -1.2% | · | -1.3%
CCCCCCc1cc2cc(S(=O)(=O)c3ccc(F)c(Cl)c3)c(=O)oc2cc1O | 20µM* | 0.0% | -10.7% | -6.2% | 0.5% | ? | -10.6% | ?
O=C(Cc1ccc2c(c1)OCCO2)N1CCN(S(=O)(=O)c2cccc(C(F)(F)F)c2)CC1 | ? | -3.6% | -9.1% | -8.2% | 0.6% | 1.7% | -2.8% | -2.7%
O=C(CNC(=O)c1ccc(Br)o1)Nc1cccc(S(=O)(=O)N2CCOCC2)c1 | · | 32.7%[activator] | 1.8% | · | 14.0% | 0.6% | · | ?
O=C1CNC(=O)/C1=C/c1ccc(O)cc1 | -8.1% | 7.3% | 5.1% | -17.4% | 10.8% | 15.6% | 6.1% | 15.8%
Cc1ccc(/C=N/Nc2ccc(Cl)c(C(=O)O)c2)s1 | -19.9% | ? | -9.0% | 8.6% | -20.1% | ? | -11.4% | ?
CC1CCCCC1NC(=O)Cn1nnc2ccccc2c1=O (centres undefined) | · | 11.8% | 2.1% | · | 7.1% | 0.0% | · | 5.9%
CC(=O)C1=C(O)C(=O)N(c2ccc(C)cc2)C1c1ccc([N+](=O)[O-])cc1 (centres undefined) | · | -4.5% | 1.4% | 7.1% | 19.8% | · | · | ·
CCc1ccc(S(=O)(=O)NCCc2csc3nc(-c4ccccc4)nn23)s1 | ? | 18.2% | · | · | · | -3.6%[46.1 µM] | -4.4% | ·
COc1cc(SC)ccc1C(=O)NCc1ccc(C)cc1 | 3.6% | 54.8%[activator] | -14.4% | -64.8% | -15.9% | -22.1% | -2.3% | 5.4%
Cc1ccc2c(CC(=O)Nc3ccccc3C(F)(F)F)coc2c1C | ? | -10.5% | · | · | · | -5.7%[46.1 µM] | -2.8% | 10.9%[46.1 µM]
Cc1ccc(OC(=O)CCC(=O)N2CCc3ccccc32)cc1 | -7.7% | · | -0.7% | -8.6% | 9.1% | -3.5% | -8.2% | -0.4%
CC(=O)Nc1ccccc1C(=O)C(=O)Nc1cccc(C(=O)N2CC(C)CC(C)C2)c1 (centres undefined) | · | -10.6% | -1.8% | · | -10.9% | · | · | ?
Cc1ccc(C(=O)Nc2cc(C(C)C)c(O)c(C(C)C)c2)cc1 | -5.4% | -0.4% | -2.5% | -26.6% | 10.1% | -12.2% | -7.2% | 1.9%
COc1ccccc1N1CC(C)(C)C(=O)N(C(=O)c2c(F)cccc2Cl)C1=S | · | -29.1% | 0.0% | 0.2% | -15.1% | -23.2%[46.1 µM] | · | ?

4 records picked at random from the list so far, as already listed:
SMILES | Cruzain inh noDet | StopGo reporter | SARS PLP yeast | NS1 inh | RE007 growth inh | Lassa entry inh | Cruzain inh Det | Marburg entry inh
Cc1ccc(/C=N/Nc2ccc(Cl)c(C(=O)O)c2)s1 | -19.9% | ? | -9.0% | 8.6% | -20.1% | ? | -11.4% | ?
O=C(CNC(=O)c1ccc(Br)o1)Nc1cccc(S(=O)(=O)N2CCOCC2)c1 | · | 32.7%[activator] | 1.8% | · | 14.0% | 0.6% | · | ?
CC1CCCCC1NC(=O)Cn1nnc2ccccc2c1=O (centres undefined) | · | 11.8% | 2.1% | · | 7.1% | 0.0% | · | 5.9%
Cc1ccc(C(=O)Nc2cc(C(C)C)c(O)c(C(C)C)c2)cc1 | -5.4% | -0.4% | -2.5% | -26.6% | 10.1% | -12.2% | -7.2% | 1.9%

Carrying on.
SMILES | Cruzain inh noDet | StopGo reporter | SARS PLP yeast | NS1 inh | RE007 growth inh | Lassa entry inh | Cruzain inh Det | Marburg entry inh
O=S(=O)(c1ccccc1)N1CCSC1c1ccco1 (centres undefined) | -8.6% | -15.1% | -8.8% | ? | -14.5% | 2.4% | -0.3% | -15.8%
CC(NC(=O)C(=S)N1CCN(C)CC1)c1ccccc1 (centres undefined) | · | 12.5% | 0.1% | 10.4% | -4.6% | -0.5%[46.1 µM] | · | 1.2%[46.1 µM]
O=C(N/N=C1/CCSC1)c1cccc([N+](=O)[O-])c1 | -4.8% | -12.8% | -0.8% | 6.2% | 3.2% | 15.6% | -0.1% | -1.7%
CNC(=O)c1ccsc1NC(=O)CS(=O)(=O)c1ccccc1 | · | 0.0% | -0.6% | · | 1.5% | 11.2% | · | 22.3%
CC1=C(C(=O)Nc2ccccc2)C(c2cccnc2)n2nc(-c3cccnc3)nc2N1 (centres undefined) | -6.5% | 0.8% | 4.0% | -4.4% | 1.1% | ? | -1.6% | 16.3%
Cc1ccc(S(=O)(=O)N2CCN(C(=O)Cc3ccsc3)CC2)c(C)c1 | · | -16.3% | -8.8% | -3.2% | 3.9% | 0.6% | · | ?
O=C1CCc2cc(S(=O)(=O)NC3CCCCC3)cc3c2N1CC3 | · | ? | 7.5% | · | 21.5% | -14.8% | · | 7.6%[46.1 µM]
COC(=O)Oc1cncc(C(=O)O)c1 | 2.1% | -8.3% | 2.8% | -3.9% | 2.7% | -0.2% | 2.4% | 3.2%
COc1ccc(CNC(=O)c2cnn(-c3ccccc3)c2-n2cccc2)cc1OC | 62.0% | ? | · | · | · | · | 0.2% | -26.9%[46.1 µM]
Cc1cc(C)cc(NC(=O)C2CCCN2S(=O)(=O)c2ccc3c(c2)C(C)(C)C(=O)N3C)c1 (centres undefined) | ? | -25.0%&-12.2% | -7.1% | 5.7% | -16.4% | -16.7%[46.1 µM] | -2.5% | ·
COc1ccc(/C=C/C(O)=C(\C#N)c2nnc(N3CCOCC3)n2-c2ccccc2)cc1OC | · | ? | 2.6% | · | -2.6% | -13.1% | · | -0.8%
CN(c1ccccc1)S(=O)(=O)c1cccc(NC(=O)CSc2ncc(C(F)(F)F)cc2Cl)c1 | -24.2% | ? | -18.8% | 34.0% | 6.5% | ? | 0.1% | 7.6%
CC(=O)N1c2ccccc2NC2=C(C(=O)CCC2)C1c1ccc(F)cc1 (centres undefined) | 10.1% | · | 12.5% | 11.4% | 3.5% | ? | -3.6% | -4.5%
Cc1ccc(OCCC(=O)O)cc1 | · | -11.1% | 0.5% | 2.9% | 2.7% | 5.0% | · | -5.5%[46.1 µM]
O=C(CCC(=O)c1ccc(Oc2ccccc2)cc1)Nc1cccc(Cl)c1 | -22.6% | -3.7% | 19.7% | -1.3% | 7.7% | -0.9% | -0.6% | 21.9%
O=C(c1ccc(F)cc1)N1CCOCC1 | · | 12.0% | -0.5% | -1.8% | 4.5% | · | · | ·
O=C(Cn1nnc(-c2ccccc2)n1)NNC(=O)c1ccc(Br)cc1 | · | 0.8% | -3.9% | · | -17.4% | 10.0% | · | 26.4%[46.1 µM]
COc1ccc(N(CC(=O)Nc2cc(C)ccc2C)S(=O)(=O)c2c(C)nn(C)c2C)cc1 | ? | ? | 3.3% | -15.6% | -7.6% | -9.8% | -1.8% | -33.3%
CCOc1cc(-c2nc(-c3ccc(-c4ccccc4)nc3OCC)no2)cc(OCC)c1OCC | -1.7% | -6.3% | · | · | · | -3.4%[46.1 µM] | -1.2% | -3.0%[46.1 µM]
COc1ccccc1C(=O)C1CCCN(C(=O)c2ccco2)C1 (centres undefined) | · | -2.9% | 1.7% | -0.7% | -0.6% | · | · | ·
COP(=O)(CC(=O)c1ccccc1)CC(=O)c1ccccc1 | · | 3.8% | -0.5% | -2.4% | -20.3% | 4.7%[46.1 µM] | · | -10.1%[46.1 µM]
O=C(CN1CCc2ccccc21)NN1CC(=O)N(c2ccc(Cl)cc2)CC1=O | · | -4.8% | 0.2% | 7.6% | -12.2% | -13.0%[46.1 µM] | · | 14.7%[46.1 µM]
CCCCCc1cc(=O)oc2c(C(CCN3CCCC3)c3cc(OC)c(OC)c(OC)c3)c(OC)cc(OC)c12 (centres undefined) | · | ? | -0.3% | -2.5% | 14.8% | · | · | ·
O=c1ccc2cc(S(=O)(=O)N3CCCC3)ccc2[nH]1 | 1.1% | -1.3% | · | · | · | -6.3%[46.1 µM] | -0.7% | ·
CCOC(=O)C1(Cc2ccc(Cl)cc2)CCN(C2CCC2)CC1 | · | -7.2% | 4.6% | -22.6% | 0.1% | ? | · | ?
CCOc1ccc(/C(O)=C2/C(=O)C(=O)N(c3nc(C)c(C)s3)C2c2ccco2)cc1 (centres undefined) | -27.0% | -1.0% | -5.3% | -50.2% | -20.3% | 4.4% | -9.8% | -9.7%
O=C(COC(=O)C1CC2C=CC1C2)NCCc1ccccc1 (centres undefined) | · | 44.2%[activator] | 0.3% | -4.3% | -9.2% | 12.2% | · | 18.5%[46.1 µM]
CCOC(=O)C1=C(C)N(C)C(=S)NC1c1ccccc1 (centres undefined) | -4.0% | -28.0% | 13.3% | 9.7% | 14.8% | ? | -0.4% | -0.9%
CCOC(=O)N1CCc2c(sc3c2c(=O)n(CCc2ccccc2)c(=O)n3CC(=O)Nc2ccccc2C)C1 | -5.6% | -14.0% | · | · | · | 0.1%[46.1 µM] | 1.3% | -9.7%[46.1 µM]
Cc1cc(=O)[nH]c(N/N=C/c2ccc(OC(=O)c3ccco3)cc2)n1 | -16.3% | -2.8% | -33.8% | 19.2% | -7.8% | -1.4% | -7.2% | -32.3%
CCCn1c(N)c(NCCN2CCOCC2)c(=O)[nH]c1=O | · | -2.1% | -0.2% | · | 0.8% | · | · | -3.4%[46.1 µM]
CCOC(=O)c1sc(=NC(=O)c2ccc(Br)cc2)n(C)c1C | · | 11.2% | 4.5% | -2.1% | 4.7% | · | · | ·
O=C(NCC1(N2CCOCC2)CCCCC1)c1ccc(Cl)c(S(=O)(=O)NCc2ccco2)c1 | 1.2% | 21.6% | 5.0% | -7.6% | -7.6% | 4.0% | 5.5% | 0.2%&-27.4%
